Hsc70 – small molecules displacing fluorescent ligand from Hsc70 – biochemical, fluorescence polarization, primary screen (AID 568); Hsc70 fluorescence polarization, probe displacement; higher % means a stronger effect; strong numbers were not always called active; one-dose displacement, % at 20 µM; IC50 in µM for titrated hits; 83,000 tested, under 10 active;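 active means displacement above 50% without optical interference and an IC50 on retest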;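 further: ATPase domain with a fluorescein-tagged ATP probe; 0% = vehicle and 100% = excess ADP; read after one hour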
MT1-MMP reporter – inhibitors of MT1-MMP promoter transcription, cell-based, luciferase reporter, luminescence (AID 618); calls from a first round at 10 µM; hits with a dose series show EC50 in µM; MT1-MMP promoter luciferase reporter cells, luminescence; hit rate 0.62% among 87,000;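 active means over half of the reporter light lost at 10 µM or EC50 under 50 µM; inactive means the rest and hits that failed the dose series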;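 further: actives suppress MT1-MMP promoter-driven transcription so potencies describe inhibitors; HT1080 fibrosarcoma cells; overnight exposure; toxic or luciferase-blocking compounds were not removed from the actives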
WNV NS2B-NS3 inh – blocks West Nile virus NS2B-NS3 protease activity. WNV NS2B-NS3 protease, fluorogenic substrate Ex360/Em465; stronger effect = lower value. hit rate 0.18% among 65,000. P06935. z-score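 (tested at a level between 10 and 100 µM)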;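 active means z-score at -3 or under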;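 further: score is relative to mean and spread of the compound wells of a plate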
Target sequence (P06935 1371-1501 limits assumed): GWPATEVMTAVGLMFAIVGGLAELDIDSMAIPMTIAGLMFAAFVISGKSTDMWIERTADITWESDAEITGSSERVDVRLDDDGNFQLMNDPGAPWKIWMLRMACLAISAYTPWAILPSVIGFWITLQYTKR
Target sequence (P06935 1502-1679 limits assumed): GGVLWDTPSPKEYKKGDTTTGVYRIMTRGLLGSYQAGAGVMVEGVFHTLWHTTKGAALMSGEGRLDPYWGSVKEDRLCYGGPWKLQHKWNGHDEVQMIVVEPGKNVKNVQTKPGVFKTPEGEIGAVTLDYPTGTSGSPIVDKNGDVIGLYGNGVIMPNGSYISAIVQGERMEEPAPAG
* = called active by the depositor; i = inactive; . = no result given; + = active, no number; & = joins results of further samples. Rows were taken by chance; 0.87% or so of the library scored in one or more.

Compound	Hsc70	MT1-MMP reporter	WNV NS2B-NS3 inh
COc1ccc2nc(SCc3cccnc3)c(C#N)cc2c1	-0.7%	i	.
Cc1nn(-c2ccccc2)c(C)c1C(=O)OCC(=O)N1c2ccccc2NC(=O)C1(C)C	-2.3%	i	.
COc1ccccc1CN1C(=O)CN(C2CCCC2)C(=O)C1c1ccc(F)cc1 (centres undefined)	2.2%	i	0.54
O=[N+]([O-])/C=C/c1c(OCc2ccccc2)ccc2ccccc12	63%	i	.
Cc1cc2ncn(CC(O)COC3CCCCC3)c2cc1C (centres undefined)	4.1%	i	-0.58
CCOC(=O)CCn1c(CC(=O)OCC)nc2ccccc21	2.3%	i	-0.82
CC(C)(C)c1cc(CN2CCN(CCO)CC2)cc(C(C)(C)C)c1O	13%	i	-0.66
C=CCNC(=O)CCNS(=O)(=O)c1ccc(Br)cc1	-10%	i	-0.2
O=C(CNC(=O)C12CC3CC(CC(C3)C1)C2)NC1=NCCS1	-2.3%	i	1.8
Cc1cc(C)c(C#N)c(SCCS(=O)(=O)Cc2ccccc2)n1	2.2%	i	-0.01
Cn1nnnc1SCC(=O)N1CCN(Cc2ccccc2)CC1	-3.4%	i	-0.16
CCc1ccc(NS(=O)(=O)c2ccc(OC)c(C)c2)cc1	3.2%	i	.
CN1CCN(C(=O)c2ccccc2NC(=O)C(C)(C)C)CC1	-4.2%	i	.
CC(C)CCn1nnnc1C(c1ccccc1)N1CCN(C)CC1 (centres undefined)	-7.2%	i	-0.27
CC1CCN(CCCNC(=O)c2ccc3c(=O)n(CCc4ccccc4)c(=O)[nH]c3c2)CC1	1.6%	i	.
CCCC1COC(Cn2cncn2)(c2ccc(C)cc2)O1 (centres undefined)	4.1%	i	1.4
c1ccc(-c2nc(N3CCCCCC3)nc(-n3ccnc3)n2)cc1	-0.3%	i	0.51
O=C1OC2CCC1(c1ccccc1)C2 (centres undefined)	-1.9%	i	0.01
Cn1c(Cn2c(=O)sc3ccccc32)nnc1SCc1ccccc1F	1.0%	i	-0.53
CC(C)(C)NC(=O)CSc1nnc(C2CC2)n1Cc1ccccc1	3.2%	i	0.01
CCn1cc(C(=O)NCc2ccc3c(c2)OCO3)c(=O)c2cc(F)c(N3CCN(C)CC3)cc21	-0.7%	i	-0.82
CCn1nnc(-c2ccccc2NC(=O)c2cccc(-n3cnnn3)c2)n1	6.8%	i	1.7
CCOC(=O)CCNC(C(=O)OCC)c1ccccc1 (centres undefined)	1.6%	i	.
O=C(CSCc1ccc(Cl)cc1)N1CCN(Cc2ccc3c(c2)OCO3)CC1	-3.4%	i	.
CC(C)n1c(SC2C(=O)CC(C)(C)CC2=O)nc2c1c(=O)n(C)c(=O)n2C	-4.6%	i	0.35
COc1c(S(=O)(=O)N2CCCCC2)ccc2c(S(=O)(=O)N3CCCCC3)cccc12	-8.7%	i	-0.16
COc1cccc(-n2nnc3c(=O)n(Cc4ccc(C)cc4)cnc32)c1	-0.2%	i	0.16
CCCc1nc2c(nnn2Cc2ccccc2F)c(=O)[nH]1	-3.2%	i	.
CCOc1ccc(N2C(=O)C(c3ccccc3)=C(c3nc4ccccc4s3)C2NC(C)=O)cc1 (centres undefined)	-0.5%	i	.
CCN(CC)Cc1nc2c(c(=O)[nH]1)C1(CCCC1)Cc1ccccc1-2	-1.1%	i	.
CCCCOc1ccccc1C1C(C(=O)OC)=C(C)N(C)C(C)=C1C(=O)OC	-0.2%	i	0.45
CCC(=O)Nc1cc(OC)c(NC(=O)c2ccccc2)cc1OC	-11%	i	-1
COc1ccc(N2Cc3ccccc3C2)cc1Cl	0.3%	i	1.6
CCOC(=O)c1ccc(NS(=O)(=O)c2c(C)n(C)c(=O)n(C)c2=O)cc1	4.9%	i	-2.3
Cc1ccc(N2C(=O)CC3(CC4C=CC3C4)C2=O)cc1 (centres undefined)	6.9%	i	0.36
COc1cc2c(cc1NC(=O)CC1SC(N3CCCC3)=NC1=O)oc1ccccc12 (centres undefined)	0.8%	i	-1.5
CC1CCc2nn(CC(=O)Nc3c(F)cc(F)cc3Br)cc2C1 (centres undefined)	-5.7%	i	0.04
Cc1noc(C)c1COC(=O)CCN1c2ccccc2Sc2ccccc21	5.7%	i	-2
O=C(ONC1=NCCCCC1)c1c(F)cccc1F	-1.8%	i	.
O=C(Nn1cnc2ccccc2c1=O)C1CCCCC1	-5.0%	i	-0.1
CCOc1ccc(CCNC(=O)CCn2cccc2)cc1OCC	4.9%	i	-0.01
COC(=O)C1=C(C)N=c2s/c(=C/c3ccoc3)c(=O)n2C1c1ccccc1 (centres undefined)	-31%	i	-0.61
CN1CCN(S(=O)(=O)c2ccc(=O)[nH]c2)CC1	-1.3%	i	-1.1
O=C(CCl)N(c1ccccc1)c1c[nH]c2ccccc12	2.5%	+	.
O=C(COc1cc(Cl)c(Cl)cc1Cl)Nn1cnnc1	2.1%	i	-1.8
Cc1cc(SCC(=O)c2cc3ccccc3o2)nc2ccccc12	-14%	i	.
c1ccc2[nH]c(-c3ccnc4ccccc34)nc2c1	28%&8.4%	i	-0.62
CCn1ncc(CN2CCN(C(=O)Nc3ccccc3C(=O)OC)CC2)c1C	2.0%	i	1.6
CCCSc1nsc(SCCC)c1C#N	5.1%	i	.
CCOC(=O)N1CCC(NC(=O)C(NS(=O)(=O)c2ccc3c(c2)CCN3C(C)=O)C(C)C)CC1 (centres undefined)	-4.4%	i	-1.4

Later entries.
Compound	Hsc70	MT1-MMP reporter	WNV NS2B-NS3 inh
OC1C[N+]2(CCCCC2)C1	-3.8%	i	0.3
CC1(C)CC(=O)C=C(NCCCN2CCCC2=O)C1	-2.7%	i	2.1
COC(=O)C(Cc1cncn1COCc1ccccc1)NC(=O)OC(C)(C)C (centres undefined)	5.7%	i	-0.35
CC1CCc2nc(NC(=O)Cc3cccs3)sc2C1 (centres undefined)	-2.1%	i	-0.58
COCc1cc(C)[nH]c(=O)c1C#N	-1.1%	i	1.3
COc1ccc(N(C(=O)Cc2cccs2)C(C(=O)NC2CCCCC2)c2cccn2C)cc1OC (centres undefined)	-4.9%	i	.
CC1Cc2ccccc2N1C(=O)C12CCC(C)(C(=O)C1)C2(C)C (centres undefined)	0.2%	i	-0.1
O=C(NCCO)c1nc(NCCO)c2ccccc2n1	11%	i	-0.57
CCCCN(CC)CCCNC(=O)CS(=O)(=O)Cc1nc(-c2cccc(OC)c2)oc1C	5.8%	i	1
CCCCSc1nnc(-c2c[nH]c3ccccc23)n1C	1.3%	i	-0.16
NS(=O)(=O)c1ccc(CCNc2nc(CN3CCCCC3)nc3sc4c(c23)CCC4)cc1	-2.2%	i	.
O=C(COc1ccc(S(=O)(=O)NC2CCCCC2)cc1Cl)NCc1ccc2c(c1)OCO2	4.3%	i	.
Cn1c(N)c(C#N)c2c(c1=S)CSC(C)(C)C2	3.3%	i	-1.2
Cc1ccc(C(=O)Nc2ccc(Cl)cn2)cc1	7.2%	i	0.82
O=C(O)c1cccc(NC(=O)c2ccc3c(c2)C(=O)N(CC2CCCO2)C3=O)c1 (centres undefined)	-1.6%	i	.
Nc1nc(NC(=O)Cc2ccccc2)nn1-c1ccccc1	-8.7%	i	1.2
CN(Cc1ccccc1)c1nc2c(c(=O)[nH]c(=O)n2C)n1CCOc1ccccc1	-4.2%	i	-0.67
O=C(CCS(=O)(=O)c1ccc(Br)cc1)NC1CCCC1	-3.7%	i	.
CCOCCCN(CCC#N)S(=O)(=O)c1ccc(S(=O)(=O)N2CCCC2)cc1	-4.8%	i	-0.68
Cc1ccnc(SCC(=O)O)n1	-2.3%	i	-1.5
COc1ccccc1NC(=O)NCCCl	-1.5%	i	.
O=C(CCCCCN1C(=O)CCC1=O)Nc1ccc(Br)cc1F	7.8%	i	-0.08
COc1cc2c(N3CCOCC3)cc(O)c(CC(=O)Nc3ccccc3)c2cc1OC	0.1%	i	0.34
CCN1CCN(C(c2ccccc2)c2sc3nc(C)nn3c2O)CC1 (centres undefined)	4.1%	i	-0.91
O=C(O)c1c(Cl)c(Cl)c(Cl)c(Cl)c1C(=O)N1CCOCC1	2.2%	i	-0.49
COC(=O)CNc1ccc2c(c1)OCO2	7.2%	i	.
COC(=O)Nc1ccc2c(c1)N(C(=O)CCN1CCOCC1)c1ccccc1S2	1.2%	i	1.6
CC(=O)OCn1nnc2ccccc2c1=O	-1.6%	i	-0.9
COC(=O)CSc1nsc(SCC(=O)OC)n1	0.5%	i	-0.48
CC(=O)c1cc(Cc2csc(C(C)=O)c2)cs1	3.5%	i	-0.44
O=C(CN1C(=O)NC2(CCCC2)C1=O)Nc1nc(-c2ccc(F)cc2)cs1	-1.6%	i	-0.16
O=C(c1ccccc1)N(Cc1ccccc1)c1ccccn1	-6.9%	i	-1.3
CN(C)c1cccc2c(S(=O)(=O)N3CCOCC3)cccc12	2.7%	i	1.3
Cn1c(=O)cc(SCC(=O)NCCCN2CCOCC2)c2ccc(Cl)cc21	3.8%	i	-1
O=c1/c(=C/c2ccccn2)sc2nc3ccccc3n12	14%	10µM*	-0.06
CCOc1nc(-c2ccccc2)ccc1-c1noc(COc2ccccc2)n1	-26%	i	0.67
Cn1c(=O)[nH]c2sc3c(c2c1=O)CC(C)(C)OC3	-1.1%	i	.
O=C(NCc1cccnc1)c1c[nH]c2cc3c(cc2c1=O)OCCO3	2.3%	i	-0.9
CCC(c1nnnn1C1CCCC1)N1CCN(c2ccccc2F)CC1 (centres undefined)	-1.7%	i	0.25
COc1cc(Cl)c(C)cc1NC(=O)COC(=O)/C=C/c1c(C)nn(C2CCS(=O)(=O)C2)c1Cl (centres undefined)	-4.1%	i	.
CC(C)(C)C(=O)Nc1sc2c(c1-c1nc3ccccc3[nH]1)CCCC2	-1.8%	i	.
COc1cc(NS(=O)(=O)N2CCCC2)cc(OC)c1OC	-0.7%	i	1
CS(=O)(=O)N(Cc1ccccc1)c1ccc(C(=O)N2CCOCC2)cc1	-1.3%	i	-0.07
Cn1c(=NCC(O)COc2ccccc2)sc2ccccc21 (centres undefined)	4.3%	i	-0.58
CC1(C)Cc2c(cnn2-c2ccccc2)C(=O)/C1=N\NC(=O)c1ccccc1	1.7%	i	.
Cc1onc(-c2ccccc2Cl)c1C(=O)N1CCN=C1SCc1cccnc1	-0.1%	i	2.4
COc1ccc(-c2ocnc2C(=O)Nc2ccccc2N2CCCCC2)cc1	-5.9%	i	0.55
COC(=O)c1[nH]c(=O)c2ccccc2c1O	-1.3%	i	.
O=C(c1ccc(CS(=O)(=O)c2ccccc2)o1)N1CCOCC1	-1.2%	i	0.1
O=C(CCc1nc(-c2ccccc2)no1)Nc1cc(C(F)(F)F)ccc1Cl	-0.8%	i	0.26

2 of the compounds above, with two lines to a compound:
Under each structure – Hsc70, MT1-MMP reporter, WNV NS2B-NS3 inh
> O=C(CSCc1ccc(Cl)cc1)N1CCN(Cc2ccc3c(c2)OCO3)CC1
 : -3.4%, i, .
> CN1CCN(C(=O)c2ccccc2NC(=O)C(C)(C)C)CC1
 : -4.2%, i, .

(list continues)
Compound	Hsc70	MT1-MMP reporter	WNV NS2B-NS3 inh
CCN(CC)P(=O)(C(NC(=O)OC)C(F)(F)C(F)(F)C(F)(F)C(F)F)N(CC)CC (centres undefined)	-0.3%	i	0.54
CCOc1cccc(C2C(C(=O)c3ccco3)=C(O)C(=O)N2Cc2ccncc2)c1 (centres undefined)	-3.1%	i	0.77
CCN(CC(=O)NC(=O)NCc1ccco1)Cc1nc2ccccc2c(=O)[nH]1	6.1%	i	3.1
CCC(=O)Nc1ccccc1C(=O)N1CCOCC1	6.1%	i	0.72
COc1cccc2cc(C(=O)C3=C(O)C(=O)N(CCCN4CCOCC4)C3c3ccncc3)oc12 (centres undefined)	-2.6%	i	-0.46
CCN(CC)CCOC(=O)c1ccc2c(c1)OCCO2	-1.3%	i	.
CC12CCC(C/C1=N\OC(=O)c1ccc(F)cc1)C2(C)C (centres undefined)	-1.6%	i	.
O=C(Cc1ccc(S(=O)(=O)N2CCCC2)s1)N1CCOCC1	-7.0%	i	1.8
Cn1c(SCC(=O)N2CCOCC2)nnc1-c1ccccc1	1.8%	i	-0.22

Structures shown so far with bromine:
Compound	Hsc70	MT1-MMP reporter	WNV NS2B-NS3 inh
C=CCNC(=O)CCNS(=O)(=O)c1ccc(Br)cc1	-10%	i	-0.2
CC1CCc2nn(CC(=O)Nc3c(F)cc(F)cc3Br)cc2C1 (centres undefined)	-5.7%	i	0.04
O=C(CCS(=O)(=O)c1ccc(Br)cc1)NC1CCCC1	-3.7%	i	.
O=C(CCCCCN1C(=O)CCC1=O)Nc1ccc(Br)cc1F	7.8%	i	-0.08

Screens from PubChem BioAssay.
